Measles inh – inhibitors of measles virus growth in cells, primary screen, measles RdRp inhibitor project, cell-based, single point, HTS. infected Vero cells, GFP fluorescence, 64 h; stronger effect = lower value. z-score (concentration not given with the values). 33,000 tested, 0.1% active. AID 745, 2007;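 active means z-score under -3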;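 further: score is relative to mean and SD of the compound wells of a plate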
An asterisk follows results filed as active.

no.	structure	Measles inh
1	CCOc1ccccc1NC(=O)CN1C(=O)c2ccccc2C1=O	0.58
2	Cc1ccc(NC(=O)CN(C)S(=O)(=O)c2cccs2)cc1C	0.24
3	COC(=O)c1sc2ccccc2c1NC(=O)c1ccccc1Br	0.08
4	CCSCCOC(=O)C1=C(C)NC2=C(C(=O)CC(c3ccc(Cl)cc3)C2)C1c1ccccc1Br (centres undefined)	-1.8
5	CS(=O)(=O)N1CCCCCC1	-0.48
6	CC1(C)Cc2ccccc2C(C[N+](=O)[O-])=N1	-0.91
7	Cc1cc(N2CCC(C)CC2)nc2ccc(NC(=O)C3CC3)cc12	-0.22
8	COc1cc(NS(=O)(=O)c2ccc3[nH]c(=O)sc3c2)cc(OC)c1OC	-1.7
9	CCN(CC)CCCNC(=O)c1ccc2c(c1)NC(=O)C(N1CCCC1)S2 (centres undefined)	1.6
10	O=C(Cn1ncc2c(=O)oc3ccccc3c21)Nc1cccc(C(F)(F)F)c1	-0.89
11	O=C(Nc1c2c(nn1-c1ccc(Cl)cc1)CS(=O)(=O)C2)c1ccc(Br)cc1	0.05
12	COc1cc(OC)cc(N2C(=O)c3cc(N4CCOCC4)c([N+](=O)[O-])cc3C2=O)c1	-0.37
13	Cc1ccccc1C1Nc2ccc3ncccc3c2C2=C1C(=O)CC(C)(C)C2 (centres undefined)	-0.49
14	CCCN1C(=O)C(O)(CC(=O)c2ccc(CC)cc2)c2cc(Br)ccc21 (centres undefined)	-0.6
15	Cc1ccccc1NC(=O)CCN1C(=O)C2CC=C(Cl)CC2C1=O (centres undefined)	0.3
16	Cc1ccc(C(=O)C(C)Oc2cccc(N3C(=O)C4C5CCC(C5)C4C3=O)c2)cc1 (centres undefined)	-2.1
17	COc1cc(C(O)c2ccccc2)c([N+](=O)[O-])cc1OC (centres undefined)	0.11
18	Cn1cc(CN2CCc3ccccc3C2)c2ccccc21	0.16
19	CC(C)=CCCC1(C)OC(=O)N(CCOC23CC4CC(CC(C4)C2)C3)C1(C)O (centres undefined)	-0.72
20	COc1ccc(C2=NN3C(C2)c2cccc(OC)c2OC3(C)C)cc1 (centres undefined)	0.47
21	CSc1nnc(-c2ccccc2)c(-c2ccccc2)n1	0.35
22	C=CCNc1nc2c(c(=O)n(C)c(=O)n2C)n1Cc1ccc(F)cc1	-0.53
23	NC(N)=Nc1nc2ccccc2o1	-0.26
24	CCC(NS(=O)(=O)c1cc(OC)ccc1OC)C12CC3CC(CC(C3)C1)C2 (centres undefined)	1.1
25	CC1(C(=O)NC2CCCC2)CCC(=O)N1CCC1=CCCCC1 (centres undefined)	1.3
26	Cc1cc(N2CCC(C)CC2)nc2ccc(NC(=O)C3CCC(C)CC3)cc12 (centres undefined)	-0.22
27	O=C(O)C1Nc2ccc([N+](=O)[O-])cc2C2C=CCC12 (centres undefined)	-0.55
28	Cc1ccc(C(C#N)N2CCOCC2)cc1 (centres undefined)	0.46
29	COc1cc(NC(=O)COc2c(C)cccc2C)c(OC)cc1Br	-0.25
30	CSc1nnc2c(n1)OC(c1ccc3c(c1)OCO3)N(C(C)=O)c1ccc(Br)cc1-2 (centres undefined)	-1.5
31	CCCc1cc2c(=O)c(-c3ccc4c(c3)OCCCO4)coc2cc1OC	0.76
32	CN1CCN(CCCNC(=O)c2cccc(N3CCCC3=O)c2)CC1	-1.8
33	COc1ccc(-c2ccc(Cc3nc(Cc4ccccc4)no3)cc2)cc1	0.53
34	CC(C)CCN(C)C1CCN(C(=O)Nc2ccccc2)CC1	-1.4
35	COc1ccc(Nc2nc(-c3ccccc3)nc3ccccc23)cc1	-0.78
36	COc1ccc(S(=O)(=O)N2CCC(N(C)C(C)C)CC2)cc1	0.45
37	Cc1cccc(N2CCN(C(=O)c3ccc4nc(-c5ccco5)c(-c5ccco5)nc4c3)CC2)c1C	-1.2
38	COc1ccc(C(NC(=O)C(C)C)c2ccc3cccnc3c2O)cc1OC (centres undefined)	-0.12
39	CCCSCC1CC1(Cl)Cl (centres undefined)	1.3
40	CN1C2C=C(N(CCc3ccccc3)C(=O)c3ccccc3)CC1CC2 (centres undefined)	0.29
41	CC1=C(C(=O)Nc2ccc(F)cc2)C(c2ccc(C)cc2)C2=C(CC(C)(C)CC2=O)N1 (centres undefined)	-1.1
42	O=C(NCCC1=CCCCC1)Nc1ccc2nsnc2c1	-2.5
43	COc1ccc(Nc2ncnc3sc(C)cc23)c(OC)c1	0.97
44	CCCS(=O)(=O)N1CCCC(C(=O)NCCN2CCOCC2)C1 (centres undefined)	-0.49
45	C=CCOC(=O)C1=C(C)N=C2SCCC(=O)N2C1c1cccc([N+](=O)[O-])c1 (centres undefined)	-0.89
46	Nc1nc(-c2ccc(Cl)cc2)nc2c1c(=O)oc1ccccc12	-1.3
47	CCc1ccc(NC(=O)CNS(=O)(=O)c2cccc3nsnc23)cc1	-0.41
48	O=C(O)Cc1ccc(NC(=O)c2cc3ccccc3oc2=O)cc1	-0.27

Look-ups from the results shown:
C=CCOC(=O)C1=C(C)N=C2SCCC(=O)N2C1c1cccc([N+](=O)[O-])c1 (centres undefined) in Measles inh shows -0.89
Cc1cc(N2CCC(C)CC2)nc2ccc(NC(=O)C3CC3)cc12 in Measles inh shows -0.22
CC1(C(=O)NC2CCCC2)CCC(=O)N1CCC1=CCCCC1 (centres undefined) in Measles inh shows 1.3

Other entries.
no.	structure	Measles inh
49	CCOc1ccc(N/C(=N/c2nc(C)cc(C)n2)NC(=O)c2ccccc2)cc1	-0.14
50	COc1cc2nc(SCC(=O)NCc3ccco3)n3nc(-c4ccccc4)nc3c2cc1OC	1.4
51	CC#CCCCC(=O)Nc1cccc(C(=O)O)c1	-0.01
52	O=C(c1cn(-c2ccccc2)nc1-c1ccc(Cl)cc1)N1CCOCC1	-0.56
53	CC1=C(C(=O)OC(C)C)C(c2ccccc2Br)C2=C(CC(C)(C)CC2=O)N1 (centres undefined)	-0.68
54	O=C(CSc1ccc(Cl)cc1)NCc1ccc(Cl)cc1	0.72
55	CN(Cc1ccco1)C(=O)C1CCC(CNS(=O)(=O)c2ccc(Cl)cc2)CC1 (centres undefined)	-2.2
56	COC(=O)C1=C(C)NC(C)=C(C(=O)OC)C1c1ccco1	0.13
57	CCCS(=O)(=O)N1CCN(C(=O)c2ccccc2[N+](=O)[O-])CC1	0.23
58	Cc1n[nH]c(=O)nc1N1CCN(Cc2ccccc2)CC1	-0.29
59	CC1CCN(S(=O)(=O)c2ccc3[nH]cc(C(=O)NCc4ccccc4Cl)c(=O)c3c2)CC1	1.3
60	CCCCN(CC)S(=O)(=O)c1ccc2c(c1)CCN2C(=O)CC	0.27
61	Cc1ccc(C)c(CN2C(=O)c3ccccc3Sc3ccc(C(=O)O)cc32)c1	0.6
62	c1ccc2c(c1)ccc1nnc(-c3ccc4c(c3)OCO4)n12	0.24
63	O=C(CCS(=O)(=O)c1ccc(Br)s1)NC1CCCCCC1	-0.81
64	Cc1nc2c(C(=O)N(C)Cc3ccco3)c[nH]n2c(=O)c1Cc1ccccc1F	1.9
65	CCOC(=O)C1=CSC(=C2C(=S)C(C)(C)Nc3cc(C)ccc32)S1	-1.4
66	O=C(c1cccc(S(=O)(=O)N2CCOCC2)c1)N1CCc2ccccc21	-1.2
67	Cc1nc(N)sc1-c1csc(Nc2ccccn2)n1	-0.72
68	O=c1oc2cc(O)ccc2cc1-c1nnc(Nc2cccc(C(F)(F)F)c2)s1	8.8
69	CCOC(=O)CN(Cc1ccccc1Cl)S(=O)(=O)c1c(C)cc(C)cc1C	-0.22
70	COc1ccc(C2CC(C(F)(F)F)n3nc(C(=O)Nc4cccnc4Cl)c(Cl)c3N2)cc1OC (centres undefined)	0.52
71	COc1ccc(-n2nc3c(c2NC(=O)C2(c4ccc(Cl)cc4)CCCC2)CS(=O)C3)cc1 (centres undefined)	-0.31
72	O=[N+]([O-])c1ccc(N2CCOCC2)cc1NCCO	-0.3

Rewritten with values ahead of the structure: two of the compounds above.
item	Measles inh	structure
72	-0.3	O=[N+]([O-])c1ccc(N2CCOCC2)cc1NCCO
46	-1.3	Nc1nc(-c2ccc(Cl)cc2)nc2c1c(=O)oc1ccccc12

The results go on.
no.	structure	Measles inh
73	Oc1ccccc1-c1nc(Cl)c2ccccc2n1	-0.51
74	COCCCNC(=O)c1ccc2c(c1)N(Cc1ccc(Cl)cc1)C(=O)CS2	-1.8
75	O=S(=O)(c1ccccc1)c1nc(-c2ccc(Br)cc2)oc1N1CCCCC1	-0.4
76	CCOc1ccc(CNC(=O)c2cc(=O)[nH]c3ccc(S(=O)(=O)N4CCCC4)cc23)cc1	0.14
77	Cc1ccc(C2=NN(C(=O)CCC(=O)O)C(c3ccc(Br)cc3)C2)cc1 (centres undefined)	1.2
78	COc1ccc2cc3cc(C(=O)NCCCN(C)Cc4ccccc4)sc3nc2c1	-0.27
79	O=c1c(-n2nnc3ccccc32)c2oc3ccccc3nc-2c2ccccc12	-0.14
80	CCc1cccc(CC)c1NC(=O)C1(S(=O)(=O)c2ccc(Cl)cc2)CC1	1.1
81	O=S(=O)(Nc1nc2ccccc2s1)c1ccccc1	-1
82	O=C(NCCCN1CCCC1)c1cc(-c2cccs2)nc2ccccc12	1.1
83	COc1ccc(N2CCN(CCNC(=O)CN3C(=O)COc4ccccc43)CC2)cc1	-0.29
84	Cc1nc(N2CCCCC2C)c2c(C)c(C(=O)Nc3ccc(F)cc3)sc2n1 (centres undefined)	1.6
85	CC1(c2ccccc2)CC(C)(C)N(C(=O)CSC#N)c2ccccc21 (centres undefined)	-0.02
86	c1ccc(-c2ccc(-c3ncc(-c4ccccc4)o3)cc2)cc1	0.01
87	CCOC(=O)c1c(-c2ccc(Cl)cc2)csc1NC(=O)c1ccccc1OC	-0.15
88	CCOC(=O)c1nc(N)c(=O)n(-c2ccc(C)cc2)n1	2.3
89	COc1ccc(C2C(C(=O)NCC3COc4ccccc4O3)c3ccccc3C(=O)N2c2ccc(OC)cc2)cc1 (centres undefined)	-0.82
90	Cc1c(Cl)c([N+](=O)[O-])nn1CCCC(=O)Nc1cc(Br)ccc1O	-0.05
91	CCOc1cc(C2/C(=C(\O)c3ccc(C)cc3)C(=O)C(=O)N2c2cccnc2)ccc1O (centres undefined)	3.6
92	Cc1c(C(=O)N2CCN(c3ccccc3F)CC2)sc2ncn(CC(=O)N3CCC(C)CC3)c(=O)c12	1.4
93	O=C(c1cccs1)N1N=C(c2ccccc2)CC1c1ccc(Cl)cc1 (centres undefined)	1.4
94	Cc1ccc(C2=NN(S(C)(=O)=O)C(c3cc4ccc(C)cc4nc3Cl)C2)cc1 (centres undefined)	-0.32
95	O=C(NCc1ccc(F)cc1)c1c(O)c2cccc3c2n(c1=O)CC3	-0.52
96	COc1ccc(OC)c(S(=O)(=O)N2CCCCCC2)c1	0.14
97	COc1cccc(Cn2c(Oc3cccc(OC)c3)nc3c2c(=O)n(C)c(=O)n3C)c1	0.74
98	CCn1c(SCC(=O)N2CCCC2)nc2c(c1=O)SC(C)C2 (centres undefined)	-0.4
99	Cc1ccc(-n2c(=O)c3c4c(sc3n(CC(=O)NCCc3ccc(S(N)(=O)=O)cc3)c2=O)CCC4)cc1C	0.17
100	COc1cccc(NC(=O)CCn2c(=O)[nH]c3ccccc3c2=O)c1	-0.23
101	Cc1oc2ccc(NS(=O)(=O)c3ccc(Cl)cc3)cc2c1C(=O)OC(C)C	-0.03
102	COc1ccc(OC)c(C2C(C(=O)Nc3cc(C)ccn3)=C(C)NC3=C2C(=O)CC(C)(C)C3)c1 (centres undefined)	1.2
103	CC1=C(C(=O)Nc2ccccc2)C(c2sccc2C)n2nc(-c3ccccc3)nc2N1 (centres undefined)	-1.4
104	c1ccc2c(c1)OCC(CNCc1ccc3c(c1)OCO3)O2 (centres undefined)	-2.2
105	Cc1cccc(C)c1OCC(O)CN1CCN(c2ccccc2)CC1 (centres undefined)	0.09
106	O=C1C2Sc3[nH]c(=O)sc3C(c3ccc(O)cc3)C2C(=O)N1c1ccc(Br)cc1 (centres undefined)	1.1
107	CCCCNC(=O)CN1C(=O)C(CC)Oc2ccc(Cl)cc21 (centres undefined)	0.24
108	COc1ccc(C2C=C(c3ccc(I)cc3)Nc3nnnn32)c(OC)c1OC (centres undefined)	-0.1

4 compounds picked at random from those above, as already listed:
no.	structure	Measles inh
97	COc1cccc(Cn2c(Oc3cccc(OC)c3)nc3c2c(=O)n(C)c(=O)n3C)c1	0.74
99	Cc1ccc(-n2c(=O)c3c4c(sc3n(CC(=O)NCCc3ccc(S(N)(=O)=O)cc3)c2=O)CCC4)cc1C	0.17
103	CC1=C(C(=O)Nc2ccccc2)C(c2sccc2C)n2nc(-c3ccccc3)nc2N1 (centres undefined)	-1.4
107	CCCCNC(=O)CN1C(=O)C(CC)Oc2ccc(Cl)cc21 (centres undefined)	0.24

(further entries)
no.	structure	Measles inh
109	COc1ccc(N2CCN(CC(O)COc3ccc(Cl)c(C)c3)CC2)cc1 (centres undefined)	0.14
110	O=C(Nc1nncs1)c1ccccc1I	0.83
111	Oc1ccc(N=CC=Cc2cccc(Br)c2)cc1-c1nc2ccccc2o1	-0.02
112	Cc1ccc(S(=O)(=O)Nc2cc(S(=O)(=O)c3ccc(Cl)cc3)c(O)c3ccccc23)cc1	2.3
113	COc1ccc(OC)c(-n2cnc3cc(C(=O)NC4CCCCCC4)ccc32)c1	-0.16
114	Cc1ccc(N2C(=O)NC3CC2(C)Oc2ccc(Cl)cc23)cc1Cl (centres undefined)	0.12
115	COC(=O)Cc1ccc(N(Cc2ccccc2F)S(=O)(=O)c2cc(C)ccc2C)cc1	0.57
116	CCN1C(=O)CSc2ccc(C(=O)NCCC3=CCCCC3)cc21	-0.56
117	O=C(Nc1ccc(Cc2ccncc2)cc1)c1ccc(Br)cc1	-0.85
118	Cc1ccc(S(=O)(=O)Nc2cccc(F)c2)cc1C(=O)O	-0.73
119	Cc1cccc(C(=O)Nc2ccc(S(=O)(=O)N3CCCCC3)cc2)c1	1.2
120	COc1ccc(C(=O)Nc2ccc(S(=O)(=O)Nc3cc(OC)nc(OC)n3)cc2)cc1	-0.03
121	O=c1ccc2ccc(Oc3ncnc4scc(-c5ccc(Br)cc5)c34)cc2o1	1
122	O=C1CCC(=O)N1CCC1=CCCCC1	0.13
123	COc1ccc2c(c1)OC(c1ccc(F)cc1)C1=C2Nc2ncnn2C1c1ccc(F)cc1 (centres undefined)	-0.26
124	O=C(Nc1ccc2c(c1)OCO2)c1cccs1	0.37
125	COc1ccc(Cl)cc1S(=O)(=O)N1CCN(CCC(=O)Nc2ccccc2F)CC1	-0.6
126	O=C(Nc1cccc2nsnc12)c1ccccc1Br	0.55

These rows are one share of the data; count on the stated rates, not on these rows.
